# Source: PubChem
# PINK1 expr mod: changes PINK1 expression | PINK1 immunofluorescence, high-content cytometry, 24 h | Potency, µM (top dose mostly 76.6 µM), for the others: at the highest dose activation (PINK1 increase), most hits filed as activators | 410,000 tested, 0.2% active | AID 624263; active = well fitted activation curve with a large enough effect; inconclusive = small, poorly fitted or top-dose-only effect; inactive = flat fitted curve, though single readings scatter; cell line not stated here;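 also: potency is read from the fitted curve at half-maximal effect; % of control where 0% means no effect; nearly all actives have a fitted effect of over 65% in size; a mitochondrial uncoupler was the plate control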
#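 Readout is PINK1 immunofluorescence, quantified alongside mitochondrial, cell and nuclear markers by laser-scanning microplate cytometry. Cells from a stable line were exposed to compound titrations (5 concentrations) for 24 hours, with CCCP controls.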
# CtBP-E1A inh: blocks the CtBP interaction with E1A. AlphaScreen GST-E1A/His-CtBP binding, 1536-well; hits give low values; control for the full effect not named in the record. activity change, % (no concentration beside the values). 340,000 tested, 0.49% active. AID 651724; in the data active means activity change below about -65%; inconclusive means about -30% to -65%; inactive means above about -30%; also: % is scaled to controls: 0 for no effect and ±100 for the full control effect; compound concentration not given in the record
#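 GST-E1A and His-tagged CtBP (125 nM each as 5X stock) were preincubated with pin-transferred compound for 2 h at 37 °C in the dark, then glutathione donor and nickel acceptor beads were added for 1 h before AlphaScreen reading.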
# D2 ag: activates the human D2 dopamine receptor. P14416. DiscoveRx PathHunter D2 beta-arrestin, luminescence, 90 min; 100% = 57 uM dopamine signal. activation, % (concentration not given with the values). 360,000 tested, 0.084% active. AID 624465; in the data active = activation above about 40%; inconclusive = about 15% to 40%; inactive = below about 15%; also: compound concentration not given in the record; the text of the record calls up to 30% inactive
# Target sequence (P14416 whole entry, looked up): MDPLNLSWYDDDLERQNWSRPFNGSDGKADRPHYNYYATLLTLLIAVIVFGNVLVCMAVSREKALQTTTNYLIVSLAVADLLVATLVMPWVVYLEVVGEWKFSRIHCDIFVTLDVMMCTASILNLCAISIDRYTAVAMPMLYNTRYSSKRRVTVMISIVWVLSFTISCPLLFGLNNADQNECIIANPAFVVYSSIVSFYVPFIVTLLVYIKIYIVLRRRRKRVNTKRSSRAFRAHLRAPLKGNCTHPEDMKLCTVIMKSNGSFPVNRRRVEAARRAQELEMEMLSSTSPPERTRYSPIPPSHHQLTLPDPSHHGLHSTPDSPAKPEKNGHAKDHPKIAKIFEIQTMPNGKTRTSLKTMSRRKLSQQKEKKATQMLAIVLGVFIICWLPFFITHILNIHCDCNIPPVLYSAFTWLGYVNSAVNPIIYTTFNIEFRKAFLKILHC
#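 Agonist mode: compounds alone added to overnight-plated D2 PathHunter cells for 90 min at 37 C, with 57 uM final dopamine (EC100) defining full response. Beta-arrestin recruitment detected by chemiluminescent reagent, read after 1 h at ambient temperature.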
# TRPML1 agonist: agonists of human TRPML1 channel. Q9GZU1. TRPML1-expressing cells, Ca2+ dye fluorescence, FDSS; host cell line not named in the record; reference of the full effect not given here. activation, % (no concentration beside the values). 410,000 tested, 0.12% active; in the data active = activation above about 50%; inconclusive = about 30% to 50%; inactive = below about 30%; also: 0% is about no effect; the text of the record puts the active cut at 80%
# Target sequence (Q9GZU1 whole entry, looked up): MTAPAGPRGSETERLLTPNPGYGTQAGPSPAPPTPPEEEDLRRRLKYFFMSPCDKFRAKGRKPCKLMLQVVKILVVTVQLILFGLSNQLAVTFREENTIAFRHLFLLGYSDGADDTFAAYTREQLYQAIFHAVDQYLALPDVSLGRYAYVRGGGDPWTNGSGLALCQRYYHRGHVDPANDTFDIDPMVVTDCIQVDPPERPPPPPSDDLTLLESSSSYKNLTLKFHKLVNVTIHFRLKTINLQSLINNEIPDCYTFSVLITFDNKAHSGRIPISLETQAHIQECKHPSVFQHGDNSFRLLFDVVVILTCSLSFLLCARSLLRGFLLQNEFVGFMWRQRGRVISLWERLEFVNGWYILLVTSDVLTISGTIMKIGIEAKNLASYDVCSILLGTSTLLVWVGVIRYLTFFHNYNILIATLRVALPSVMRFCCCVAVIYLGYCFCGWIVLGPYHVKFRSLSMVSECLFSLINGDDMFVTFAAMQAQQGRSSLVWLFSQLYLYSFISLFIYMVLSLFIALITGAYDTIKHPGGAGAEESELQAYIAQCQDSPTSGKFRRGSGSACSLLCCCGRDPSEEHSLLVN
#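 TRPML1-DL cells, Tet-induced overnight (~16 h, 37 degrees C), loaded 45-90 min at room temperature with Ca8 no-wash calcium dye plus quencher. FDSS fluorescence: 10 s baseline, compound pin-transfer, 110 s agonist read, then EC80 54-4 (4uM final) and 110 s antagonist read.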
# TRPML1 inh: human mucolipin-1 channel inhibition. Q9GZU1. TRPML1-inducible cells, Ca2+ dye fluorescence, FDSS; hits give low values; inhibition of EC80 agonist-evoked calcium signal. activity change, negative = inhibition, % (test concentration not listed). 390,000 tested, 0.02% active; in the data active means activity change below about -50%; inconclusive means about -30% to -50%; inactive means above about -30%;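 also: stimulus is agonist 54-4 at its EC80 concentration; % is scaled to controls: 0 for no effect and ±100 for the full control effect; compound concentration not given in the record; the text of the record puts the active cut at -80%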
#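 TRPML1-DL cells, Tet-induced overnight (~16 h, 37 °C) at 1,500 cells/well, were loaded with Ca8 no-wash dye plus quencher for 45-90 min at room temperature. Compounds were pinned during FDSS kinetic reading; agonist 54-4 at EC80 (4 uM final) then added.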
# Six1-Eya2 inh: Six1/Eya2 interaction inhibition | AID 651725 | AlphaScreen GST-Six1/His-Eya2 binding, biochemical; hits give low values; control for the full effect not named in the record | activity change, % (no concentration beside the values) | 360,000 tested, 0.56% active | Q15475+O00167; in the data active = activity change below about -65%; inconclusive = about -30% to -65%; inactive = above about -30%; also: % is scaled to controls: 0 for no effect and ±100 for the full control effect; compound concentration not given in the record
#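 AlphaScreen luminescence read after one hour at 37 °C in darkness. Pin-transferred compounds met GST-Six1 and His-Eya2 protein (5X stock 250 nM/500 nM) plus glutathione donor and Ni-chelate acceptor beads (5X, 50 ug/mL).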
# The depositor's hits bear a star; ? = inconclusive; . = not tested or not shown; & = joins results of further samples; [ ] = remark or other dose. Rows are unselected, and some 1% of all compounds hit somewhere here.
cpd	structure	PINK1 expr mod	CtBP-E1A inh	D2 ag	TRPML1 agonist	TRPML1 inh	Six1-Eya2 inh
1	CN1CCN(C2CN(Cc3cn(Cc4ccc(Cl)cc4)nn3)S(=O)(=O)C2)CC1 (stereo unspecified)	1.2%	2	.	-0.8	.	-2
2	CC(NS(=O)(=O)c1ccc(Cl)c(Cl)c1)C(=O)OCC(=O)Nc1ccc2c(c1)OCO2 (stereo unspecified)	-1.0%	-2	3.3	-0.2	3	-12
3	NC(=O)CC[C@@H]1NC(=O)[C@@H]2CCCN2C(=O)c2cc([N+](=O)[O-])cc(F)c2NCCC[C@@H](C(N)=O)NC1=O	0.5%	4	-1.8	-0.9	1	10
4	COc1ccc(NC(=O)c2cc3n(n2)C(C(F)(F)F)CC(c2ccc(OC)cc2)N3)cc1 (stereo unspecified)	?	-2	1.3	0.8	-3	1
5	Cc1ccc(CN2CC(N3CCN(CC4CC4)CC3)CS2(=O)=O)cc1 (stereo unspecified)	-1.1%	2	-4.2	-0.4	.	0
6	COC(=O)C1=C(c2ccccc2)c2ccccc2S(=O)(=O)N1CC(=O)Nc1cccc(C(C)=O)c1	0.7%	.	.	3.2	-24	.
7	COc1ccc(NS(=O)(=O)c2cc(C(=O)N3CCC3)ccc2C)cc1	1.3%	-6	9.7	-0.7	-1	-1
8	CCC1(c2ccc(OC)cc2)NC(=O)N(CC(=O)c2ccc3c(c2)OCCO3)C1=O (stereo unspecified)	-0.8%	-8	-10	7.8	9	7
9	O=C(NCc1ccccc1)C(=O)NCC(c1ccc2c(c1)OCO2)N1CCOCC1 (stereo unspecified)	-1.0%	.	.	0.7	-6	.
10	COc1ccc(Cn2c(SCC(=O)N(C)Cc3ccccc3)nc3ccccc32)cc1	2.2%	.	.	2.3	36	.
11	N=C1CCCN1c1ccccc1O	0.8%	-5	-4.0	.	.	-1
12	N#Cc1c[nH]n2c(NC3CCCCC3)c(-c3cccc(Cl)c3)nc12	-0.3%	.	.	0.6	-19	.
13	O=[N+]([O-])c1ccc(/C=N/Nc2nc(N3CCCC3)nc(N3CCCC3)n2)o1	0.4%[38.3 µM]	-2	-6.0	-0.2	11	-10
14	Cc1ccc(S(=O)(=O)NC(=O)C2(C)CCN2C(=O)C2(c3ccc(Cl)cc3)CCC2)cc1 (stereo unspecified)	1.0%	-1	-4.5	-0.1	?	-1
15	CCC(c1nnnn1Cc1ccco1)N1CCN(C(=O)c2ccco2)CC1 (stereo unspecified)	0.3%	-3	-3.9	0.7	22	-2
16	O=C(c1ccc(Br)c([N+](=O)[O-])c1)N1CCN(Cc2ccccc2)CC1	1.4%	.	-0.5	-1.2	24	-17
17	CCC(CC)NCc1ccc(OC)cc1OC	3.2%[38.3 µM]	10	-2.5	0.8	3	6
18	COc1ccc2cnn(CCOc3ccccc3)c(=O)c2c1OC	-2.6%	0	-1.4	0.6	2	13
19	C=CCOc1ccccc1CNCc1ccc(F)cc1	0.4%	.	-2.6	-0.7	0	14
20	O=C(CSc1ncccn1)NCc1cccc(Cl)c1	1.2%	.	-6.0	1.2	18	-4
21	C=CCNS(=O)(=O)c1cc2c3c(c1)CCN3C(=O)CC2	0.9%	.	0.3	-0.5	5	2
22	COc1ccc(C(C)(C)C)cc1NC(=O)COC(=O)CSCc1c(C)noc1C	-0.3%	-12	-3.8	2.9	1	14
23	COc1ccc(N(C)C(=O)c2cnc(N3CCN(c4ncccn4)CC3)c3ccccc23)cc1	1.5%	2	0.3	0.4	-12	3
24	Cc1cc(NC(=O)CSCC(=O)OC(C)C(=O)c2cc(C)c(C)cc2C)no1 (stereo unspecified)	0.7%	6	5.3	0.7	-2	-8
25	N#CC1=C(N)SC(N)=C(C#N)C1c1cccc(Oc2ccccc2)c1	2.8%[38.3 µM]	-22	1.0	-0.2	-10	-21
26	CCOC(=O)c1c(NC(=O)Cc2cccs2)sc2c1CCCC2	2.1%	3	-3.1	2.0	-17	0
27	O=C(/C=C/NNC(=O)c1ccc(Br)cc1)c1ccccc1	-0.2%	1	-11	-0.3	0	-9
28	CN(CC(=O)Nc1c(Cl)cccc1Cl)C(=O)c1cc(S(=O)(=O)N(C)C)ccc1N1CCCC1	2.0%	1	-4.6	-0.9	-3	0
29	COc1ccc(C(=O)NCC(=O)NCc2ccncc2)cc1	-1.2%	1	-2.1	0.3	-7	6
30	COc1ccc(CNC(=O)C(c2cccc(C)c2)N(C(=O)c2csnn2)C2CC2)cc1 (stereo unspecified)	2.9%	27	-4.4	-1.9	-1	8
31	O=C1CCC2(CC1)NC(=O)N(c1ccccc1)N2	2.7%	.	5.0	-0.4	-7	-3
32	CCN=C1SC(C(=O)Nc2ccc(OCC)cc2)CC(=O)N1CC (stereo unspecified)	15%	-2	-3.6	0.5	-14	-6
33	COCCNC(=O)/C(C#N)=C/c1ccc2c(c1)OCO2	1.6%	-10	-4.0	-0.2	-6	4
34	CC/C(O)=C1\C(=O)CC(c2ccccc2)CC1=NC(C)C (stereo unspecified)	0.4%	5	0.5	-0.7	-8	-8
35	Cc1nc(C)c(C(=O)C2=C(O)C(=O)N(CCN3CCOCC3)C2c2cccs2)s1 (stereo unspecified)	0.2%	1	-4.5	0.3	-5	-8
36	C[C@H](CO)N1C[C@H](C)[C@@H](CN(C)S(=O)(=O)c2cn(C)cn2)Oc2c(NC(=O)Nc3ccc4c(c3)OCO4)cccc2C1=O	-0.2%	0	-2.9	0.0	36	-2
37	COc1cc(NC(=O)c2ccccc2)ccc1NC(=O)Cc1ccccc1	8.6%	2	-0.6	-0.4	-15	-1
38	CCC(C)[C@H](NC(=O)N1CCn2c1nc1ccccc12)C(=O)NCCc1ccccc1 (stereo partly specified)	1.2%	0	1.0	-0.3	11	1
39	COc1ccccc1NS(=O)(=O)c1cccc(NC(=O)Nc2ccccc2)c1	?	0	2.4	3.1	2	-6
40	COc1ccc(CC(N)c2csc(NC(=O)c3ccc(F)cc3)n2)cc1 (stereo unspecified)	?	-24	-1.7	0.2	.	-22
41	COc1cccc(CNC(=O)C2CCN(c3ncnc4c3nc3n4CCCCC3)CC2)c1	4.9%&3.5%	.	1.2	0.0&-0.1	-9&-10	5
42	CCCc1nc2ccccc2c(C(=O)OC2CCOC2=O)c1CC (stereo unspecified)	2.2%	-1	0.8	0.1	-14	9
43	CCOc1ccc(CCN2C(=O)C(=O)N([C@@H](CC(C)C)CN3CCC[C@@H]3CN3C(=O)C(=O)NC[C@@H]3Cc3ccccc3)C[C@@H]2Cc2ccc(O)cc2)cc1	4.4%	1	-1.9	-0.7	-6	-5
44	Cc1onc(-c2ccccc2Cl)c1C(=O)N1C=CC(C(F)(F)F)=NCC1	-2.7%	0	-0.7	-0.6	-10	0
45	COc1ccc(NC(=O)CCCN2C(=O)C(c3ccccc3)Oc3cccnc32)cc1 (stereo unspecified)	1.2%	3	0.5	-1.0	-6	-5
46	CCN1CCN(c2ncc3c(n2)CCN(Cc2cccc(F)c2F)C3)CC1	0.3%	.	.	0.1	-7	.
47	COc1cccc2c1cc1c(=O)n(CC(=O)N3CCCCC3)nc(C)n12	1.5%	.	.	-0.2	7	.
48	Cc1ccc(O)c(/C=N/NC(=O)Cc2ccc(Cl)cc2)c1	3.3%	.	5.3	0.3	3	-1
49	O=C(COC(=O)c1ccc(O)cc1O)NC(=O)NCc1ccccc1	1.1%	2	-0.1	-0.3	-6	0
50	Nc1ncnc2c1ncn2[C@@H]1O[C@H](C(=O)N2CCCN(Cc3cccs3)CC2)[C@@H](O)[C@H]1O	10.0%	0	-6.4	-0.5	-24	5

# (list continues)
cpd	structure	PINK1 expr mod	CtBP-E1A inh	D2 ag	TRPML1 agonist	TRPML1 inh	Six1-Eya2 inh
51	CSc1nc2ccc3nc(NC(=O)c4cccs4)sc3c2s1	.	6	1.2	0.6	-1	6
52	CCCCC(CC(O)COCCC)C(=O)NN (stereo unspecified)	9.8%	3	-2.2	-0.6	2	-3
53	O=C(c1cc(C2CC2)nn1-c1ccccc1)N1CCN(Cc2ccc(Cl)cc2)CC1	24%	-26	0.6	3.1	-13	-11
54	O=C(Nc1ccccc1)c1cccc(S(=O)(=O)NCc2ccco2)c1	-0.7%	-11	-1.0	-0.1	-9	-4
55	O=C(Nc1nnc(C2CCCO2)s1)c1cccs1 (stereo unspecified)	?	6	0.4	0.4	-13	-3
56	CCOc1ncccc1C(=O)N(CCC(C)C)c1c(N)n(Cc2ccccc2)c(=O)[nH]c1=O	1.1%	0	-6.3	-0.9	35	-6
57	COc1ccccc1CNC(=O)c1ccc2c(=O)n(CC3CCCO3)c(=S)[nH]c2c1 (stereo unspecified)	1.6%	-9	-3.5	0.3	-6	3
58	CCNC(=O)CC1C(=O)N(c2cccc(OC)c2)C(=O)N1CCOC (stereo unspecified)	-1.4%	3	-0.8	2.3	30	0
59	CN(Cc1ccccc1)S(=O)(=O)c1ccc(C(=O)Nc2nnc(C3CC3)o2)cc1	0.5%	-16	-4.8	-1.1	-15	-1
60	CCCCN1C(=O)C(=O)N(c2ccccc2)C1=S	13%	-1	1.3	1.0	9	-1
61	O=C(C1CCC(=O)N(C2CCCC2)C1)N1CCN(c2ccc(Cl)cc2)CC1 (stereo unspecified)	9.2%	5	-2.8	-0.6	-5	2
62	Cc1ccc(C(=O)Nc2ccccc2C(=O)N2CCCC(C)C2)cc1 (stereo unspecified)	-0.1%	-19	-4.1	0.7	-18	7
63	N/C(=N\OC(=O)CCCOc1ccccc1)c1ccncc1	0.5%	1	3.4	-0.6	-4	10
64	CCCn1cc(CN2CCc3ccc(NC(=O)C4CCCO4)cc3C2)c(C)n1 (stereo unspecified)	1.8%	2	3.2	1.4	14	-2
